# Bioassay records deposited in PubChem by several laboratories.
# PKD1 kinase inh: inhibitors of human PKD1 kinase, biochemical, fluorescence polarization | Serine/threonine-protein kinase D1 (Homo sapiens), Q15139 | PKD1 kinase fluorescence polarization assay | inhibition, %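 (about 10 µM by stock and volumes)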 | 0.056% of 200,000 active | AID 797, 2007;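 active = inhibition of 50% or more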;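 note: controls were vehicle for no effect and a reference inhibitor for full effect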
# RGS16-Gao: modulators of RGS16 binding to Galphao, primary screen, biochemical, human proteins, multiplexed bead flow cytometry; 0.38% of 220,000 active; bead-based flow cytometry RGS16-Galphao binding, fluorescence; actives lie on both sides; binding response (% of control), % at 10 µM;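 active = below 25% or above 175%, edge rows of some plates excepted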;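 note: Galphao activated by GDP with aluminum fluoride before binding; 100% = wells without compound and 0% = beads without RGS; some results beyond the cut were filed as inactive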
# Target sequence (O15492 whole entry, looked up): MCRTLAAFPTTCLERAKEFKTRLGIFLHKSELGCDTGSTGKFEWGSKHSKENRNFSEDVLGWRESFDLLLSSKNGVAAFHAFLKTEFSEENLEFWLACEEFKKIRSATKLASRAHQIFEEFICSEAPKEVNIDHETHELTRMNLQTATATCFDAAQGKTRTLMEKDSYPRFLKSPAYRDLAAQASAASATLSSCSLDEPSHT
# Target sequence (P09471 whole entry, looked up): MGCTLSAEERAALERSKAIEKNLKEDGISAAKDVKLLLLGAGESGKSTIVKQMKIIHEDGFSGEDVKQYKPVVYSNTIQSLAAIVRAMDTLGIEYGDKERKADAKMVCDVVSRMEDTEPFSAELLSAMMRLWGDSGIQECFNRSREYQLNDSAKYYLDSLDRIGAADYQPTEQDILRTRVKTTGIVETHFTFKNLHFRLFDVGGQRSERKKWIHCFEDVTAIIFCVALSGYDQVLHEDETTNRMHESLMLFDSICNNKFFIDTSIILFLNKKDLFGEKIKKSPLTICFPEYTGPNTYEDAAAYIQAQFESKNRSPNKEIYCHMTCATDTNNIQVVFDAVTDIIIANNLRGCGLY
# Insulin prom inh: inhibitors of insulin promoter-driven GFP, primary screen, imaging, TRM-6 cells (human fetal islet line), eGFP reporter, cell count; reporter expression induced with tamoxifen; inhibition, % at 2 µM; 0.9% of 130,000 active;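 active = inhibition above the mean plus 3 SD, with well images judged a real hit on visual review, cut at about 60% in these data, passing the limit was not always enough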
# GALR2 agonist: GALR2 receptor agonists, primary screen, cell-based; Galanin receptor type 2 (Homo sapiens), O43603; activation, %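 (tested at 5 µM)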; 0.48% of 140,000 active; GALR2-expressing cells, agonist activation read-out; AID 803, 2007;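 active = above mean plus 3 SD of all compounds, about 5% in these data, not always enough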;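 note: 0% = vehicle buffer wells and 100% = reference agonist at full effect; tested in CHO reporter cells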
# Target sequence (O43603 whole entry, looked up): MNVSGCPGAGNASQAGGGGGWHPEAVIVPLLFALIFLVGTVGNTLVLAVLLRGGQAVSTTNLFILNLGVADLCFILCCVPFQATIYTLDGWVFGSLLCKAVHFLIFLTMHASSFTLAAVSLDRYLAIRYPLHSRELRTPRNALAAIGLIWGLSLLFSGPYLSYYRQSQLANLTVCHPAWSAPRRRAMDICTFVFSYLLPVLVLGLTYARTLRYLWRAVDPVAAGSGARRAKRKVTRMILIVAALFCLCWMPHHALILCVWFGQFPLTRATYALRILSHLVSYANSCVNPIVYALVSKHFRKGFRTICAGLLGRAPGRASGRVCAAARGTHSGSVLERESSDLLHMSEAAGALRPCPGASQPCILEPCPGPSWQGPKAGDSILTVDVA
# HSV augment: enhancers of HSV replication in host cells, fold increase, host cell viability; 0.005% of 220,000 active; maximum fold increase; HSV replication augmentation in cells; AID 1956, 2009;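 active = peak rise of 1.5-fold or more in the series; tested in PC3 cells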;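 note: first round at 10 µM; read as green reporter fluorescence; hits show the peak of a series up to 25 µM; 1 = signal of infected wells without compound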
# Insulin prom inh cell count: further read-out of Insulin prom inh, marked with its call; normalized cell count, %; measured here: cell count, toxicity; reference of the scale not given here;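 cells exposed to compound for 48 h; stained nuclei by imaging scaled within each plate; lower means fewer cells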
# HSV augment primary fold: also measured in HSV augment; calls as there; fold increase; compound at 10 µM; measured here: primary screen fold increase 10 uM; tested in PC3 cells;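 GFP signal in the first replicate; 1 = infected wells without compound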
# * = called active by the depositor; i = inactive; / = no result given.
# Screens in order – PKD1 kinase inh	RGS16-Gao	Insulin prom inh	Insulin prom inh cell count	GALR2 agonist	HSV augment	HSV augment primary fold
> Cc1ccc(C(=O)N/C(=C/c2ccc(-c3cccc([N+](=O)[O-])c3)o2)C(=O)NC(C)(C)C)cc1
 : 13.6	174.1	19.5	107.7	-0.6	i	0.93
> O=C(Nc1cccc(C(F)(F)F)c1)Oc1ccccc1N1CCOCC1
 : /	96.7	/	/	/	i	0.91
> CCN(CC)C(=O)C(C)N(C#N)c1nc(Cl)nc(N(C)C)n1 (stereo unspecified)
 : -0.8	102.4	/	/	/	i	0.77
> Cc1cccc(N2CCN(C(=O)N3CCCCC3)CC2)c1C
 : 4.9	112.9	-57.1	139.5	/	i	1.06
> CCNC(=S)/N=C(/Nc1ccc(OC)cc1)Nc1nc(C)cc(C)n1
 : /	100.1	/	/	/	i	1
> CCOC(=O)c1c(C)[nH]c(C(=O)OCc2c(C)noc2C)c1C
 : 5.7	104.2	12.9	97.0	-2.8	i	0.92
> CC(C)(C)NC(=O)CSc1nc(-c2ccccc2)cc(=O)[nH]1
 : 0.4	98.4	/	/	/	i	0.93
> CCCCc1cc2c(s1)CCCC/C2=N/O
 : -11.8	72.0	33.3	118.4	-0.9	i	1.02
> COc1cccc(CNC(=O)C(C(=O)NCc2cccc(OC)c2)c2ncc(C(F)(F)F)cc2Cl)c1
 : -2.5	106.4	-66.7	111.8	/	i	0.87
> NC(CO)C(O)c1ccc([N+](=O)[O-])cc1 (stereo unspecified)
 : 0.2	102.4	/	/	/	i	1.02
> C=CCOc1ccc(/C=N/N2C(=O)C(CC(=O)Nc3ccc(F)cc3F)SC2=NC)cc1 (stereo unspecified)
 : -5.5	109.8	-52.4	91.5	0.8	i	0.91
> COc1ccc(C2CC(C(F)(F)F)n3nc(C(=O)O)cc3N2)cc1 (stereo unspecified)
 : /	103.6	/	/	/	i	1.09
> CS(=O)(=O)N(Cc1ccc(Cl)cc1)c1ccc(C(=O)NCCSc2ccccn2)cc1
 : -0.3	102.9	0.0	101.8	0.2	i	0.91
> CCOc1ccc(C(=O)NCC(=O)OCc2ccc(F)cc2Cl)cc1
 : 10.3	107.7	34.7	136.9	-0.4	i	1.18
> O=C(NC1CCCCC1)N(C1=NCCCCC1)c1ccc(Br)cc1
 : -0.3	102.8	/	/	-1.1	i	1.04
> CCOC(=O)c1ccc(CC(=O)c2ccc(O)cc2O)o1
 : -4.8	64.7	-84.4	82.9	2.2	i	1.1
> COc1ccc(NC(=S)NCCCN2CCCC2)cc1Cl
 : -5.0	89.7	/	/	/	i	0.95
> CC(O)C(O)C(O)C(O)/C=N/NC(=O)c1ccccc1 (stereo unspecified)
 : -12.6	62.0	/	/	-1.3	i	1.18
> CCOC(=O)C(C)Sc1nc2ccccc2c(=O)n1CC (stereo unspecified)
 : -7.6	102.1	-425.7	32.6	-1.6	i	1.01
> CCc1c(C)nc(SCC(=O)CC(=O)OC(C)C)c(C#N)c1C
 : -11.7	100.4	-14.3	93.4	-2.3	i	0.95
> C=CCn1c(-c2ccc(OC)c(OC)c2)n[nH]c1=S
 : 4.7	98.0	/	/	-0.5	i	1.09
> O=C(O)c1ccc(-n2cccn2)nc1
 : -4.3	99.4	11.8	148.3	/	i	0.9
> CS(=O)(=O)N(CC(=O)N1CCN(c2ccccc2)CC1)c1ccc(Cl)c(C(F)(F)F)c1
 : 5.1	108.8	-13.8	111.6	-2.0	i	0.76
> Cc1ccc(S(=O)(=O)N2CCC(C(=O)O)CC2)cc1C(=O)O
 : -1.5	99.0	57.9	134.1	-2.2	i	1.08
> Cc1ccc(-c2nn(-c3ccccc3)cc2C(=O)N2CCN(c3ccccn3)CC2)cc1
 : -3.0	94.7	/	/	/	i	0.83
> Cc1nn(C(C)C)c(C)c1CN1CCN(Cc2ccsc2)C(CCO)C1 (stereo unspecified)
 : 10.0	92.4	/	/	/	i	0.98
> CC(C)NC(=O)c1cc2ccccc2o1
 : -2.1	110.6	44.8	137.6	-2.3	i	0.87
> COC(=O)c1ccccc1NC(=O)c1cc2n(n1)C(C(F)F)CC(C(F)F)N2 (stereo unspecified)
 : -6.6	104.2	15.8	128.3	-0.6	i	1.25
> CCOC(=O)CSc1nc(C2CC2)nc2ccccc12
 : 4.4	98.0	/	/	-1.3	i	1.01
> Cc1[nH]c2ccccc2c1C(=O)CN1CCN(C2CCCCC2)CC1
 : -6.8	100.0	-3.1	92.9	-1.6	i	0.9
> COc1ccc(S(=O)(=O)c2c(C)c(NS(=O)(=O)c3ccccc3)cc(C)c2O)cc1
 : -4.9	99.3	/	/	/	i	0.98
> Cc1ccc(NC(=S)NNC(=S)NC2CCCCC2)cc1
 : -1.3	34.9	26.7	107.4	/	i	1
> CC(C)Oc1cccc(C(=O)C2CCCN(Cc3cccn3-c3cccnc3)C2)c1 (stereo unspecified)
 : /	111.7	/	/	/	i	0.94
> O=C(Nc1ccc(N2CCOCC2)c(Cl)c1)c1cccnc1
 : -6.2	99.8	15.8	68.2	0.7	i	0.85
> COc1ccc(Cl)cc1-c1nc(-c2ccc(NC(=O)c3cccs3)cc2)no1
 : -9.6	108.9	-52.6	149.6	0.1	i	0.81
> Cc1onc(-c2ccccc2)c1C(=O)N1CCc2ccccc21
 : 0.6	104.9	-28.6	71.7	-1.6	i	1.11
> CCOc1cc(/C=C2\NC(=O)NC2=O)cc([N+](=O)[O-])c1O
 : /	93.9	/	/	/	i	0.98
> Cc1nn(CCC(=O)NNC(=S)Nc2ccc(F)cc2)c(C)c1Br
 : -9.2	108.8	-125.4	95.3	0.5	i	1.01
> Cc1ccc(-c2nnc(SCC(N)=O)n2C)cc1
 : 6.9	101.2	-28.2	178.9	/	i	0.96
> O=C(c1ccccc1)c1ccccc1C(=O)N1CCOCC1
 : -2.1	98.5	90.0*	126.4*	-2.1	i	0.83
> COc1ccc(/C=N/NC(=O)c2ccc3nc[nH]c3c2)c(OC)c1OC
 : /	100.3	/	/	/	i	0.93
> O=C(N/N=C/c1ccc(OCc2ccccc2)cc1)c1ccncc1
 : -2.4	99.6	-38.9	105.0	/	i	1.05
> CCc1ccc(-c2nnn(Cc3nn[nH]n3)n2)cc1
 : -10.3	99.7	19.2	123.3	-0.6	i	0.81
> N#Cc1c(N)c(C(=O)c2ccc(Cl)cc2)n2c1CCC2
 : -2.0	103.6	-17.1	118.0	-2.3	i	1.03
> Cc1occc1C(=O)NNC(=O)C1CCCCC1
 : 1.0	130.7	23.7	117.5	-0.2	i	0.97
> COc1ccc(NC(=O)CNS(=O)(=O)c2ccc(Cl)cc2)cc1
 : 10.1	104.8	-30.8	103.8	-2.1	i	1.04
> O=C(CCCOc1ccc(Cl)cc1Cl)N1CCCc2ccccc21
 : -3.6	17.6	-36.2	56.0	-2.5	i	1.01
> Cc1ccc(C)c(C(=O)O/N=C(\N)c2ccc(Br)cc2)c1
 : -6.0	100.5	53.9	88.0	2.8	i	0.94
> Cc1cc2nc3c(c(=O)n2[nH]1)CCCC3
 : -0.4	105.1	15.0	125.9	-0.6	i	0.98
> Cc1nn(Cc2ccc(F)cc2)c(Cl)c1/C=N/NC(=O)c1ccccc1
 : -0.8	105.8	40.0	83.8	/	i	0.96

# Going on with the list:
# Screens in order – PKD1 kinase inh	RGS16-Gao	Insulin prom inh	Insulin prom inh cell count	GALR2 agonist	HSV augment	HSV augment primary fold
> CCn1c(=N)n(CC(O)COc2cccc(C)c2)c2ccccc21 (stereo unspecified)
 : -7.9	100.4	-152.6	63.8	-3.6	i	0.74
> O=C(O)CCCNc1c(C(=O)Nc2ccc(Cl)cc2)cc([N+](=O)[O-])cc1[N+](=O)[O-]
 : -0.6	102.4	/	/	/	i	0.92
> COc1ccc(NC(=O)c2ccc(C(=O)c3ccccc3)o2)cc1
 : -7.9	101.2	90.0*	87.5*	-1.8	i	1.02
> CCCc1cc(C(=O)N2CCCC(C(=O)c3cccc4ccccc34)C2)n(C)n1 (stereo unspecified)
 : -2.0	103.0	/	/	/	i	0.9
> COc1cccc(N2CCN(CC(=O)NC3=Nc4ccccc4N=C(C)C3c3ccccc3)CC2)c1 (stereo unspecified)
 : /	102.2	/	/	/	i	0.95
> CC(C)Cc1ccc(C(C)NC(=O)c2ccc(=O)[nH]c2)cc1 (stereo unspecified)
 : -7.9	104.2	-350.0	68.8	/	i	0.92
> CC1=NN(C(=O)c2ccoc2C)C(O)(C(F)(F)F)C1 (stereo unspecified)
 : /	109.2	/	/	/	i	0.9
> Cc1ccc(S(=O)(=O)Nc2cc(-c3ccccc3)nn2C)cc1
 : /	111.9	/	/	/	i	1.15
> COc1ccc(OC)c(CNC(=O)Cc2c(C(=O)O)[nH]c3ccccc23)c1
 : -7.6	108.6	/	/	-2.8	i	1.15
> COc1ccc(/C=N/N=C2\SCC(=O)N2c2c(C)n(C)n(-c3ccccc3)c2=O)cc1OC
 : -3.5	131.9	3.3	72.0	0.1	i	0.99
> COc1ccccc1CNC(=O)CN(c1cccc([N+](=O)[O-])c1)S(C)(=O)=O
 : -7.5	101.0	/	/	/	i	0.87
> Cc1cccc(NC(=O)CNC(=O)COc2ccc(-c3ccc(C#N)cc3)cc2)c1C
 : -7.2	76.4	15.4	67.3	0.9	i	1.01
> COc1ccc(C(=O)c2cc([N+](=O)[O-])ccc2N2CCCC2)cc1
 : 5.0	103.8	-16.9	50.7	1.0	i	0.83
> CCOc1cccc2c1OC1(C)CC2NC(=O)N1c1cccc(Cl)c1 (stereo unspecified)
 : 12.3	98.3	/	/	-5.1	i	1.14
> O=C(N1CCOCC1)C12CC3CC(C1)CC(C(=O)N1CCOCC1)(C3)C2
 : -1.5	99.5	0.0	52.5	-0.9	i	0.88
> O=C(COc1ccc(Br)cc1Cl)c1ccc[nH]1
 : -13.7	99.1	-25.7	96.9	/	i	0.87
> CCOC(=O)c1cc2c(=O)n3cccc(C)c3nc2n(Cc2cccnc2)c1=N
 : -0.9	/	-132.6	112.2	-0.1	/	/
> C=CCOc1ccc(/C=C2\N=C(C)OC2=O)cc1OC
 : /	101.1	/	/	/	i	0.89
> CCOc1cc(/C=N/Nc2nc(=O)[nH]nc2C)ccc1O
 : -1.7	109.8	30.0	70.1	/	i	1.03
> Cn1c(=O)c2c(nc(SCC(=O)NCc3ccc4c(c3)OCO4)n2Cc2ccc(F)cc2)n(C)c1=O
 : -8.8	/	/	/	-2.1	i	1.02
> CS(=O)(=O)Oc1ccc(Br)cc1/C=C1/N=C(c2ccco2)OC1=O
 : -7.9	92.4	50.0	116.1	-1.5	i	0.95
> CSc1sc(C(=O)NNC(C)=O)c2c1C=CCC2
 : /	93.2	/	/	/	i	1.08
> COc1ccc(-c2cc(N)n(S(=O)(=O)c3ccc(F)cc3)n2)cc1OC
 : 9.9	101.3	/	/	-2.0	i	0.98
> Cc1ccc2c(CC(=O)OC(C)C(=O)Nc3ncc(Cl)cc3Cl)coc2c1 (stereo unspecified)
 : 2.2	92.9	/	/	-1.2	i	1.04
> COc1ccc(-n2ncc3c(N4CCCc5ccccc54)ncnc32)cc1
 : 1.7	110.1	-9.1	110.6	-1.6	/	/
> O=C(Nc1cccnc1)c1cc(-c2ccccc2)on1
 : -1.3	102.7	25.0	129.1	-1.9	i	0.94
> CN(C)Cc1cc(C(C)(C)C)c(O)c(C(C)(C)C)c1
 : -7.5	94.3	/	/	-2.3	i	1.01
> Cc1cc2cc(C)c3nnc(SCC(=O)N4CCc5ccccc54)n3c2cc1C
 : -0.1	1.3*	-29.2	64.4	-0.5	i	1.11
> COc1ccc(Cn2c(=O)[nH]c3cc(C(=O)NCCCN4CCCC4)ccc3c2=O)cc1
 : -5.7	96.2	-56.8	100.3	-1.7	/	/
> CCc1ccc(NC(=O)CC2NCCNC2=O)cc1 (stereo unspecified)
 : -15.1	99.5	-20.0	117.0	-2.2	i	0.9
> CCOc1cc(OCC)cc(C(=O)NC(=S)Nc2cccc(C(F)(F)F)c2)c1
 : -2.7	107.8	-11.6	178.0	0.8	/	/
> O=C(CN1CCN(c2ccccc2)CC1)Nc1scc2c1c(=O)oc1ccccc12
 : /	104.6	/	/	/	i	0.85
> CC1CC(C)(C)NC(=S)N1CC(=O)NCc1ccccc1Cl (stereo unspecified)
 : -6.0	41.8	8.1	93.1	-1.4	i	1.01
> CC(=O)Nc1ccc(S(=O)(=O)Nc2nc3ccccc3nc2Nc2cccc(S(N)(=O)=O)c2)cc1
 : /	98.6	/	/	/	i	1
